# Screening data (PubChem)
# GALR2 ag – agonists of human galanin receptor 2 (GALR2); GALR2-expressing cells, agonist activation read-out; activation, %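 (tested at 5 µM)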; 0.48% of 140,000 active;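 active means above mean plus 3 SD of all compounds, about 5% in these data, not always enough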;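 further: 0% = vehicle buffer wells and 100% = reference agonist at full effect; tested in CHO reporter cells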
# Target sequence (O43603 whole entry, looked up): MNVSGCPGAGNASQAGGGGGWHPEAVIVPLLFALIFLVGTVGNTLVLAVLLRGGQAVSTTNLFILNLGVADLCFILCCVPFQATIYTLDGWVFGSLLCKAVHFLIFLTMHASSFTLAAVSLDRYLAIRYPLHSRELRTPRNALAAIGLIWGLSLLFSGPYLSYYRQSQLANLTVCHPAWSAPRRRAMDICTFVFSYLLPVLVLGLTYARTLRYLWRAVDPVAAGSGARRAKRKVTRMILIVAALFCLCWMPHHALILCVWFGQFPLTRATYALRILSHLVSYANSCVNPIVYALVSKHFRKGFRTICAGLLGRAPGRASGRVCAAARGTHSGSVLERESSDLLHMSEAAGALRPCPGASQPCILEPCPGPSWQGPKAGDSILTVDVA
# PKD1 kinase inh – PKD1 (human) kinase inhibition; PKD1 kinase fluorescence polarization assay; 0.056% of 200,000 active; inhibition, %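 (about 10 µM by stock and volumes)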;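 active means inhibition of 50% or more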;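 further: controls were vehicle for no effect and a reference inhibitor for full effect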
# RGS16-Gao HTS – RGS16-Galphao interaction regulator (human); O15492+P09471; bead-based flow cytometry RGS16-Galphao binding, fluorescence; actives lie on both sides; binding response (% of control), % at 10 µM; 0.38% of 220,000 active;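 active means below 25% or above 175%, edge rows of some plates excepted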;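 further: Galphao activated by GDP with aluminum fluoride before binding; 100% = wells without compound and 0% = beads without RGS; some results beyond the cut were filed as inactive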
# Target sequence (O15492 whole entry, looked up): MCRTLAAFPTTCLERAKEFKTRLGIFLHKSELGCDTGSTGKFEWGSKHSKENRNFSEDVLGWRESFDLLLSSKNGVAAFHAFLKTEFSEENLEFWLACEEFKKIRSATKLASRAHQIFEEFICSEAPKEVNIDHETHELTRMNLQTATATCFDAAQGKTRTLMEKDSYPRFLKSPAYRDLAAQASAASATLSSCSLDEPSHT
# Target sequence (P09471 whole entry, looked up): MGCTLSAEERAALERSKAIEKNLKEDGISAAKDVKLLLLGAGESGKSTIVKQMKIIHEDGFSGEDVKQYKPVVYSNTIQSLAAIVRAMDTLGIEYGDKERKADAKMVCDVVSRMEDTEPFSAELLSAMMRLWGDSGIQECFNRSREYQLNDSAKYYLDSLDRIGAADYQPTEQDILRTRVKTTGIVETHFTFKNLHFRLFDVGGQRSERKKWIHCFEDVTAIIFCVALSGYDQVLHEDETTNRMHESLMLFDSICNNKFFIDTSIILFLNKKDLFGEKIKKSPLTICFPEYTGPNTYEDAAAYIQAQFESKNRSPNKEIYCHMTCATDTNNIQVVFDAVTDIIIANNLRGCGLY
# HSV replic up – HSV replication enhancement. HSV replication augmentation in cells, fold increase. maximum fold increase. 0.005% of 220,000 active. AID 1956;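 active means peak rise of 1.5-fold or more in the series; inconclusive means self-fluorescent or not available for retest; tested in PC3 cells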;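 further: first round at 10 µM; read as green reporter fluorescence; hits show the peak of a series up to 25 µM; 1 = signal of infected wells without compound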
# INS promoter inh – TRM-6 insulin promoter activity inhibition | TRM-6 cells (human fetal islet line), insulin promoter-eGFP reporter, imaging; reporter expression induced with tamoxifen | inhibition, % at 2 µM | 0.9% of 130,000 active | AID 1273;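 active means inhibition above the mean plus 3 SD, with well images judged a real hit on visual review, cut at about 60% in these data, passing the limit was not always enough; inconclusive means inhibition over the cutoff but images rejected on review; inactive means inhibition not above the cutoff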
# INS promoter inh cell count – also measured in INS promoter inh; calls as there; normalized cell count, %; measured here: cell count, toxicity; reference of the scale not given here;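 cells exposed to compound for 48 h; stained nuclei by imaging scaled within each plate; lower means fewer cells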
# HSV replic up primary fold – also measured in HSV replic up; calls as there; fold increase; compound at 10 µM; measured here: primary screen fold increase 10 uM; tested in PC3 cells;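 GFP signal in the first replicate; 1 = infected wells without compound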
# The depositor's hits bear a star; i = inactive; ? = inconclusive; nt = no result given.
Compound	PKD1 kinase inh	GALR2 ag	HSV replic up	INS promoter inh	HSV replic up primary fold	INS promoter inh cell count	RGS16-Gao HTS
O=C(CSC1=Nc2ccccc2C2=NC(CC(=O)N3CCN(c4ccccc4)CC3)C(=O)N12)NCC1CCCO1 (configuration not stated)	-2	nt	i	nt	1.1	nt	102
O=C(NCc1ccccc1)c1nc(-c2cccs2)no1	-3	nt	i	25	1.1	99	92
Cc1cc(Nc2n[nH]c(N)c2C#N)ccc1F	5	nt	i	nt	0.92	nt	95
CSc1cccc(NC(=O)CSc2nnc(C)s2)c1	-4	-1.6	i	4	1	124	93
O=[N+]([O-])c1ccc2oc(-c3cccc(O)c3)nc2c1	8	nt	i	nt	1.1	nt	95
NNC(=O)c1ccc(NS(=O)(=O)c2ccc(Br)cc2)cc1	nt	nt	i	nt	0.95	nt	103
O=C(COc1ccc(/C=N/NS(=O)(=O)c2ccccc2)cc1)NCc1ccccc1	-11	-2.8	i	30	1	66	111
CC1=C(C(=O)NC(C)c2ccccc2)C2(CCC(C)CC2)OC1=O (configuration not stated)	nt	nt	i	nt	0.98	nt	98
CCCCNC(=O)Oc1cc(CCl)on1	3	nt	i	nt	0.85	nt	107
O=C(Cc1cc(=O)[nH]c(=O)[nH]1)N1CCC(Cc2ccccc2)CC1	-7	-2.3	i	nt	1	nt	153
Cc1sc2ncnc(N=Nc3c(O)[nH]c4ccccc34)c2c1C	1	0.1	?	nt	nt	nt	93
CCOC(=O)c1ccc(NC(=O)CC2SC3=NCCN3C2=O)cc1 (configuration not stated)	nt	nt	i	nt	1	nt	106
O=C(CSc1nc2ccccc2[nH]1)NCCN1CCCCC1	-5	-1.9	i	-44	0.98	93	100
CN(CCc1cnn(C)c1)Cc1nc(Cc2ccccc2)no1	5	nt	i	nt	1.2	nt	95
CCCN(S(=O)(=O)c1ccc(OCC)cc1)S(=O)(=O)c1cccs1	0	-2.6	i	-33	1.1	93	109
CCn1nc(C(=O)OCC(=O)c2c[nH]c3ccccc23)c2ccccc2c1=O	3	0.6	i	-29	0.99	72	100
CCOC(=O)Cn1cnc2c(cnn2-c2ccc(Cl)cc2)c1=O	-8	-2.8	i	nt	0.97	nt	93
Nc1cc(=O)[nH]c(SCCNS(=O)(=O)c2ccccc2)n1	-6	-1.6	i	nt	1	nt	106
CCC(=O)OCCNc1cc(SCCC(=O)OC)c2nonc2c1[N+](=O)[O-]	1	-1.1	i	29	0.87	91	71
S=c1[nH]nc(-c2cc(-c3ccco3)[nH]n2)n1-c1ccccc1	4	-0.2	i	37	1.1	24	94
Cc1ccc[n+](CC2OCc3ccccc3CO2)c1	0	nt	i	nt	0.93	nt	110
CCC(C(=O)Nc1ccccc1C(=O)N1CCOCC1)N1C(=O)c2ccccc2C1=O (configuration not stated)	3	-3.1	i	31	0.78	115	98
Cn1cnnc1SCc1ccccc1[N+](=O)[O-]	nt	nt	i	nt	0.87	nt	107
CCOc1ccc(-c2nn(-c3ccccc3)cc2/C=C2\SC(N)=NC2=O)cc1C	1	-0.4	i	-7	0.79	131	1.8*
CC(=O)N=c1sc2ccccc2n1C	2	-1.1	i	nt	0.89	nt	101
Cc1ccccc1CS(=O)(=O)CCC(=O)N1CCN(c2ccc(N3CCOCC3)nn2)CC1	-1	-2.2	i	38	0.93	138	101
O=C(CSc1cc(Cl)ccc1Cl)NCC(=O)Nc1ccc(F)c(F)c1F	7	-1.8	i	-53	0.77	196	100
S=C(NNc1ccc2ccccc2c1)NC1CCCCC1	11	-2.0	i	-22	0.97	135	104
Cc1cc(NC(=O)c2cc([N+](=O)[O-])cc([N+](=O)[O-])c2C)no1	6	nt	i	-40	1	68	16
CC(C)Nc1nc(N(c2ccccc2)c2ccccc2)nc(-n2ccnc2)n1	-1	0.1	nt	nt	nt	nt	101
O=C(c1ccco1)N1N=C2CCCCCC2C1(O)C(F)(F)F (configuration not stated)	-7	nt	i	7	0.7	113	105
Cc1cccc(NC(=S)NNC(=S)NC2CCCCC2)c1C	-2	nt	i	nt	0.84	nt	99
COc1ccc(C(=O)CC2OC(=O)c3c2ccc(OC)c3OC)cc1 (configuration not stated)	-4	0.2	i	50	1	89	104
COC(=O)C1=CN(c2ccc(OC)cc2)C=C(C(=O)OC)C1c1ccc(C)c([N+](=O)[O-])c1	-2	-0.6	i	14	0.96	55	102
Cc1cc2c(cc1S(=O)(=O)N1CCc3ccccc31)NC(=O)CO2	-6	nt	i	nt	0.9	nt	103
CCOc1ccc(-c2nn(-c3ccccc3)cc2/C=C(\C#N)S(=O)(=O)c2ccccc2)cc1C	-3	0.5	i	-10	0.99	104	109
CCCCNC(=O)NNC(=O)COc1cc(C)cc(C)c1	2	-1.2	i	12	1.1	89	98
CC(C)CC(NC(=O)COc1ccccc1)C(=O)O (configuration not stated)	-12	0.1	nt	45	nt	163	78
CCOc1cc(/C=N/NC(=O)c2ccncc2)ccc1OC(=O)c1ccc([N+](=O)[O-])cc1	3	-1.2	i	25	1.1	105	91
N/C(Cc1ccc([N+](=O)[O-])cc1)=N\OC(=O)Cc1ccc(Cl)cc1	10	-0.4	i	-88	1	94	105

# Shown as a hit in RGS16-Gao HTS (from the list above):
mol	PKD1 kinase inh	GALR2 ag	HSV replic up	HSV replic up primary fold	RGS16-Gao HTS
CCOc1ccc(-c2nn(-c3ccccc3)cc2/C=C2\SC(N)=NC2=O)cc1C	1	-0.4	i	0.79	1.8*

# Further structures
Compound	PKD1 kinase inh	GALR2 ag	HSV replic up	INS promoter inh	HSV replic up primary fold	INS promoter inh cell count	RGS16-Gao HTS
CC(=O)N1CCN(C(=O)COc2ccc(Br)cc2)CC1	-6	-0.6	i	-49	0.92	62	100
CS(=O)(=O)NCCSc1nnnn1-c1ccccc1	-4	-2.2	i	i	0.99	29	100
CCC(C)NCCCOc1c(C)cc(C)cc1Br (configuration not stated)	4	-0.3	i	-29	0.9	93	107
Cc1ccccc1Nc1nc(N)c2ccccc2n1	4	nt	i	nt	0.99	nt	99
COc1ccc(S(=O)(=O)N2CCSC2)cc1C	-2	0.8	i	nt	0.95	nt	104
CCOc1ccc(C(=O)Nc2ccccc2OC(F)F)cc1	2	nt	i	nt	0.96	nt	107
O=C(NCCNc1ccc([N+](=O)[O-])cc1C(F)(F)F)c1ccc(F)cc1	5	-0.6	i	54	1	137	96
COc1ccccc1OCCC(=O)OCC(=O)NC(C)c1ccccc1 (configuration not stated)	-8	-0.6	i	nt	1	nt	102
CC(=O)C1=C(O)C(=O)N(CCc2c[nH]c3ccccc23)C1c1ccc(O)cc1 (configuration not stated)	-7	-0.9	i	7	0.96	93	102
CCOC(=O)c1cc(-c2ccc(C)cc2)n(CCC(=O)N2CCN(c3ccccn3)CC2)c1C	-1	0.5	i	24	0.77	91	104
O=C(O)c1coc2ccccc12	-7	-3.1	i	13	1	100	107
CCOC(=O)CNC(=O)c1c2c(nc3ccccc13)CCCC2	2	-3.6	i	20	0.92	75	75
Cc1ccc(C(=O)Nc2ccc(C(=O)O)cc2)cc1S(=O)(=O)NCc1ccccc1	-2	nt	i	20	0.78	106	103
S=C1NCN(Cc2cccnc2)CN1	nt	nt	i	nt	1	nt	100
CCCCN(Cc1ccccc1)C(=O)c1cnc2n(c1=O)CCS2	-10	-2.4	i	-86	1	97	103
COc1ccc(C)cc1S(=O)(=O)N1CCN(c2cccc(C(F)(F)F)c2)CC1	-8	-1.0	i	31	1.1	126	105
O=C(c1ccccc1)c1c[nH]c(C(=O)NCc2cccnc2)c1	2	-1.7	i	nt	0.97	nt	83
CC(C)CCn1c(N)c(S(=O)(=O)c2cccs2)c2nc3ccccc3nc21	-12	1.9	i	2	0.72	104	112
CNC(=S)Nc1ccc([N+](=O)[O-])cc1C	-4	nt	i	nt	0.84	nt	98
CCOC(=O)C1=C(c2ccccc2)NC(SCC(=O)NC2CCCCC2)=C(C#N)C1c1ccco1 (configuration not stated)	-11	-0.4	i	-163	0.97	105	101

# In another format: entries from further up
# Order of values – PKD1 kinase inh, GALR2 ag, HSV replic up, INS promoter inh, HSV replic up primary fold, INS promoter inh cell count, RGS16-Gao HTS
S=C1NCN(Cc2cccnc2)CN1
→ nt, nt, i, nt, 1, nt, 100
CCCCN(Cc1ccccc1)C(=O)c1cnc2n(c1=O)CCS2
→ -10, -2.4, i, -86, 1, 97, 103

# Going on with the list:
Compound	PKD1 kinase inh	GALR2 ag	HSV replic up	INS promoter inh	HSV replic up primary fold	INS promoter inh cell count	RGS16-Gao HTS
COc1ccc(CNC(=O)CN(C)S(=O)(=O)c2ccccc2)cc1	-8	nt	i	nt	1.1	nt	94
CNC(=O)c1c(C)[nH]c(=S)c(C#N)c1-c1ccco1	nt	nt	i	nt	1	nt	89
O=C(O)COc1cccc(NC(=O)C2CCCO2)c1 (configuration not stated)	2	-4.4	i	50	0.92	48	102
CN1CCN(NC(=O)COc2cccc(C(F)(F)F)c2)CC1	-8	-0.1	i	-41	0.9	141	110
Cc1c(C(=O)c2ccc(F)cc2)c2ccccn2c1CCc1ccccn1	4	nt	i	nt	1.2	nt	102
O=S(=O)(O)CCN1CCOCC1	-1	-2.2	i	nt	0.95	nt	103
O=C1NN=C(c2ccccc2)CC1c1ccc(Cl)cc1Cl (configuration not stated)	-3	nt	i	-64	0.92	147	102
O=C(O)CCCNC(=O)/C(=C\c1ccccc1F)NC(=O)c1ccccc1	-6	nt	i	44	0.99	108	100
Cc1ccnc(Sc2ccc([N+](=O)[O-])cc2[N+](=O)[O-])n1	2	-1.3	i	50	0.68	75	103
O=C(O)c1cc([N+](=O)[O-])ccc1NCc1ccccc1	-2	nt	i	nt	0.98	nt	103
O=C(COC(=O)c1cccs1)c1ccc2c(c1)OCCO2	5	0.8	i	-50	1.1	103	109
CCNC(=O)C1CC(=O)N(CC)C(=Nc2cc(Cl)c(O)c(Cl)c2)S1 (configuration not stated)	23	-3.3	i	nt	0.92	nt	98
CCN(CC(=O)Nc1ccc(S(=O)(=O)N2CCCC2)cc1)CC(=O)Nc1cccc(OC)c1	nt	nt	i	nt	0.99	nt	118
O=C(O)c1cc2c(N3CCC(Cc4ccccc4)CC3)ncnc2s1	1	nt	i	12	0.95	129	98
Cc1ccc(S(=O)(=O)c2c(N)n(CC3CCOC3)c3nc4ccccc4nc23)cc1 (configuration not stated)	2	2.0	i	nt	0.9	nt	95
COCC(=O)N1CCC(n2nnc3cc(C(F)(F)F)ccc32)CC1	-2	nt	i	nt	0.94	nt	105
O=C1CC(N2CCCN(C3CC(=O)N(c4ccc(F)cc4)C3=O)CC2)C(=O)N1c1ccc(F)cc1 (configuration not stated)	-4	-1.7	i	-61	0.9	161	99
CC(C)C[C@H](NC(=O)c1nc[nH]c1C(=O)N1CCN(c2ccccc2)CC1)C(=O)OCc1ccccc1	nt	nt	i	nt	0.79	nt	99
COc1cnn(-c2ccccc2)c(=O)c1SCc1ccc(Cl)c(Cl)c1	4	-1.9	i	nt	1.1	nt	102
Cc1nc(SCC(=O)Nc2c(C)n(C)n(-c3ccccc3)c2=O)[nH]c(=O)c1Cc1ccccc1	-7	-1.3	i	-3	1.2	91	102
CC1CCN(Cc2ccc(-c3nnn(CC(=O)NC4CCCCC4)n3)cc2)CC1	-4	nt	i	nt	0.96	nt	114
CO/N=C1\CCCc2c(C(=O)NN)sc(SC)c21	nt	nt	i	nt	0.78	nt	99
CS(=O)(=O)N(CC(=O)NCc1ccco1)c1ccc(Cl)cc1Cl	-2	nt	i	-33	0.93	60	60
Cn1ncc2c(NCc3cccc(C(F)(F)F)c3)c(C(=O)O)cnc21	7	nt	i	-171	0.91	125	110
COc1ccc(/C=N\Nc2ncc(F)c(N3CCOCC3)n2)cc1OC	nt	nt	i	nt	1	nt	87
Cc1ccc(S(=O)(=O)N2CCCCC2C(=O)O)cc1 (configuration not stated)	2	nt	i	0	0.92	104	103
CCn1nc(C)c(CCC(=O)O)c1C	-5	nt	i	nt	0.94	nt	111
CC(C)(C)c1cc(S(=O)(=O)CCc2ccccn2)cc(C(C)(C)C)c1F	-5	-2.0	i	-14	0.82	52	90
N#Cc1c(-c2ccc(Cl)cc2)c(C#N)c(=O)n(N)c1N	3	-2.8	i	-32	1	51	106
Nc1ccccc1C(=O)N=Nc1[nH]c(N)c2ccccc12	5	-1.4	i	19	0.99	137	102
O=C(COC(=O)Cc1cn2ccsc2n1)NC12CC3CC(CC(C3)C1)C2	-5	-2.4	i	33	0.93	113	101
Fc1ccc(Cc2nnc(-c3cccs3)o2)cc1	5	-1.6	i	nt	1	nt	98
